# HIV Env fusion – blocks HIV Env-driven cell-cell fusion; HeLa-JRFL Env/CEM21 cell fusion, luciferase; inhibition, % at 12.3 µM; AID 651610; hit rate 1.1% among 360,000;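 active means mean replicate inhibition score of at least 50 and every replicate individually at or above 50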;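 further: 0% = plate neutral controls and 100% = maraviroc near 300 nM; one replicate is shown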
# UUG fidelity – yeast start codon fidelity modulation; S. cerevisiae UUG-firefly luciferase reporter, luminescence/redox ratio; activity score, % at 18.7 µM; hit rate 0.13% among 350,000; AID 602363;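 active means replicate mean at a twofold rise or more, about +100% in these data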;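 further: firefly luciferase made from a UUG start codon reports start codon fidelity; reporter light over untreated wells divided by growth signal over untreated wells; some hits fall short of that in this replicate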
# An asterisk follows results filed as active; & = joins results of further samples; [ ] = dose if it differs, or a comment. These rows are one share of the data. The share of hits here may be higher or lower than overall.
# Every second line gives: HIV Env fusion, UUG fidelity
C[C@@H]1CN([C@@H](C)CO)S(=O)(=O)c2ccc(C#Cc3ccc(F)cc3)cc2O[C@@H]1CN(C)CC1CC1
  -3[16.7 µM], 11
O=C(NCC[C@H]1CC[C@H](NS(=O)(=O)c2cccc(F)c2)[C@@H](CO)O1)C1CC1
  -23[16.7 µM], -7
C[C@H](CO)N1C[C@H](C)[C@H](CN(C)CC2CCOCC2)Oc2ncc(-c3ccc(F)cc3)cc2C1=O
  -4[16.7 µM], -6
Cc1ccc(S(=O)(=O)Nc2ccc3c(c2)CC(=O)N([C@H](C)CO)C[C@H](C)[C@@H](CN(C)Cc2ccc(Oc4ccccc4)cc2)O3)cc1
  42[16.7 µM], 7
COc1cccc(NC(=O)N[C@@H]2CC[C@H](CC(=O)NCc3ccccn3)O[C@H]2CO)c1
  -38[16.7 µM], -18
C[C@@H]1CCCCO[C@H](CN(C)S(=O)(=O)c2cccs2)[C@H](C)CN([C@H](C)CO)C(=O)c2cc(NS(=O)(=O)c3ccccc3)ccc2O1
  39[16.7 µM], -1
C[C@@H]1CN([C@H](C)CO)C(=O)c2cc(C#CCc3ccccc3)cnc2O[C@H]1CN(C)Cc1ccccn1
  2[16.7 µM], 46
C[C@@H]1CN([C@H](C)CO)C(=O)Cc2cc(NS(C)(=O)=O)ccc2O[C@@H]1CN(C)CC1CC1
  -1[16.7 µM], -20
C[C@H]1CN([C@@H](C)CO)C(=O)c2cccc(NS(C)(=O)=O)c2O[C@@H]1CN(C)C
  7[16.7 µM], -4
C[C@H](CO)N1C[C@H](C)[C@H](CN(C)C(=O)Nc2ccc(F)cc2)Oc2ccc(NC(=O)C3CC3)cc2CC1=O
  0[16.7 µM], 9

# The listing continues.
# Every second line gives: HIV Env fusion, UUG fidelity
COC(=O)C[C@H]1C=C[C@H](NC(=O)c2ccccc2)[C@@H](CO)O1
  -9[16.7 µM], -5
C[C@@H]1CN([C@@H](C)CO)S(=O)(=O)c2ccc(C3=CCCCC3)cc2O[C@H]1CN(C)C(=O)CC1CC1
  -18[16.7 µM], 19
COc1ccc(CN(C)C[C@H]2OCCCC[C@@H](C)Oc3ccc(NS(=O)(=O)c4ccccc4)cc3C(=O)N([C@H](C)CO)C[C@H]2C)cc1
  12[16.7 µM], 14
C[C@@H]1CN([C@@H](C)CO)C(=O)c2cc(C3=CCCC3)cnc2O[C@H]1CN(C)C(=O)c1cccnc1
  -6[16.7 µM], -11
CN1C(=O)c2cc(NC(=O)c3cccs3)ccc2OC[C@H]2O[C@@H](CC(=O)NCCN3CCCCC3)CC[C@H]21
  -23[16.7 µM], 17
Cc1noc(C)c1NC(=O)N(C)C[C@@H]1OCCCC[C@@H](C)Oc2ccc(NC(=O)C3CCCCC3)cc2C(=O)N([C@@H](C)CO)C[C@@H]1C
  -4[16.7 µM], -1
C[C@@H]1CN([C@H](C)CO)C(=O)c2cc(C3=CCCC3)cnc2O[C@H]1CN(C)C(=O)CN1CCOCC1
  -2[16.7 µM], 22
C[C@@H]1CN([C@H](C)CO)C(=O)Cc2cc(NC(=O)Nc3ccccc3)ccc2O[C@H]1CN(C)C(=O)Nc1ccc(F)cc1
  -9[16.7 µM], 6
COc1ccccc1NC(=O)N[C@@H]1CC[C@@H](CC(=O)N2CCC(Cc3ccccc3)CC2)O[C@H]1CO
  -4[16.7 µM], 8
COc1ccc(NC(=O)Nc2ccc3c(c2)C(=O)N([C@@H](C)CO)C[C@H](C)[C@@H](CN(C)C(=O)Nc2ccc(C(F)(F)F)cc2)OCCCC[C@H](C)O3)cc1
  44[16.7 µM], -18

# Next part.
# Every second line gives: HIV Env fusion, UUG fidelity
COc1ccc(NC(=O)Nc2cccc3c2O[C@@H](CN(C)C(=O)Nc2c(C)noc2C)[C@@H](C)CN([C@@H](C)CO)C3=O)cc1
  -3[16.7 µM], -10
CCCC#Cc1ccc2c(c1)O[C@H](CN(C)Cc1cncnc1)[C@@H](C)CN([C@@H](C)CO)S2(=O)=O
  5[16.7 µM], 80*
C[C@H]1CCCCO[C@@H](CN(C)C(=O)c2ccccc2)[C@@H](C)CN([C@@H](C)CO)C(=O)c2cc(NS(=O)(=O)c3cn(C)cn3)ccc2O1
  19[16.7 µM], -3
CCCC#Cc1cnc2c(c1)C(=O)N([C@@H](C)CO)C[C@H](C)[C@@H](CN(C)C(=O)Nc1ccccc1F)O2
  15[16.7 µM], 7
COc1cccc(NC(=O)C[C@H]2CC[C@@H]3[C@@H](COc4ccc(NC(=O)C5CCCCC5)cc4C(=O)N3C)O2)c1
  -10[16.7 µM], -4
COCC(=O)N(C)C[C@@H]1Oc2cc(-c3ccccc3)ccc2S(=O)(=O)N([C@@H](C)CO)C[C@@H]1C
  -5[16.7 µM], 2
COc1ccc(NC(=O)N(C)C[C@@H]2OCCCC[C@H](C)Oc3ccc(NS(=O)(=O)c4ccc(F)cc4)cc3C(=O)N([C@@H](C)CO)C[C@@H]2C)cc1
  -8[16.7 µM], 13
C[C@@H]1CN([C@H](C)CO)C(=O)c2cc(NC(=O)CCC(F)(F)F)ccc2O[C@H]1CN(C)S(=O)(=O)c1ccc(F)cc1
  4[16.7 µM], 20
O=C(CCN1CCCCC1)N[C@H]1C=C[C@@H](CC(=O)N2CCC(Cc3ccccc3)CC2)O[C@H]1CO
  -4[16.7 µM], -11
COCCNC(=O)C[C@@H]1C[C@H]2c3cc(NC(=O)CC4CC4)ccc3O[C@H]2[C@H](CO)O1
  -5[16.7 µM], -15

# Further structures:
# Every second line gives: HIV Env fusion, UUG fidelity
C[C@@H]1CN([C@@H](C)CO)C(=O)c2cc(-c3ccc(F)cc3)cnc2O[C@@H]1CN(C)S(C)(=O)=O
  21[16.7 µM], 1
C[C@@H]1CN([C@@H](C)CO)S(=O)(=O)c2ccc(C#CC(C)(C)O)cc2O[C@H]1CN(C)C(=O)CN(C)C
  2[16.7 µM], 4
C[C@@H]1CCCCO[C@@H](CN(C)S(=O)(=O)c2ccc(F)cc2)[C@@H](C)CN([C@H](C)CO)C(=O)c2cc(NC(=O)c3ccncc3)ccc2O1
  17[16.7 µM], -2
O=C(N[C@@H]1CC[C@H](CCNS(=O)(=O)Cc2ccccc2)O[C@H]1CO)c1ccc2c(c1)OCO2
  -27[16.7 µM], 10
C[C@@H]1CN([C@H](C)CO)C(=O)c2cc(NC(=O)Cc3ccccc3)ccc2O[C@@H](C)CCCCO[C@H]1CN(C)S(=O)(=O)c1cccs1
  -20[16.7 µM], -14
C[C@H]1CN([C@@H](C)CO)C(=O)c2cc(NC(=O)Nc3ccc(F)cc3)ccc2O[C@H]1CN(C)Cc1ccccc1
  9[16.7 µM], 8
Cc1ccc(S(=O)(=O)N[C@@H]2CC[C@@H](CC(=O)NCc3ccncn3)O[C@H]2CO)cc1
  7[16.7 µM], -8
C[C@@H]1CCCCO[C@@H](CN(C)S(=O)(=O)c2cn(C)cn2)[C@H](C)CN([C@H](C)CO)C(=O)c2cc(NS(=O)(=O)c3cccs3)ccc2O1
  3[16.7 µM], 3
C[C@@H]1CN([C@H](C)CO)C(=O)c2cc(C#CCN(C)C)cnc2O[C@@H]1CN(C)S(=O)(=O)c1ccccc1
  13[16.7 µM], 3
Cc1ccc(S(=O)(=O)Nc2ccc3c(c2)C(=O)N([C@H](C)CO)C[C@H](C)[C@@H](CN(C)C(=O)Nc2ccc(C(F)(F)F)cc2)OCCCC[C@@H](C)O3)cc1
  -85[16.7 µM], -17

# Next structures:
# Every second line gives: HIV Env fusion, UUG fidelity
O=C(C[C@H]1C=C[C@H](NC(=O)c2cccc(F)c2)[C@@H](CO)O1)NCc1ccc(Oc2ccccc2)cc1
  2[16.7 µM], -23
C[C@@H]1CN([C@@H](C)CO)C(=O)c2cc(C#Cc3ccccc3)cnc2O[C@@H]1CN(C)C(=O)CCN1CCCCC1
  8[16.7 µM], 28
Cc1ccc(S(=O)(=O)N(C)C[C@@H]2Oc3ncc(/C=C/c4ccccc4)cc3C(=O)N([C@H](C)CO)C[C@@H]2C)cc1
  75*[16.7 µM], -1
CC(C)c1cn(CC[C@@H]2CC[C@@H](NC(=O)C3CCC3)[C@@H](CO)O2)nn1
  4[16.7 µM], -3
C[C@H](CO)N1C[C@H](C)[C@@H](CN(C)Cc2ccc(Oc3ccccc3)cc2)Oc2ncc(-c3cccnc3)cc2C1=O
  3[16.7 µM], -16
Cc1noc(C)c1S(=O)(=O)N(C)C[C@@H]1Oc2ccc(N(C)C)cc2CC(=O)N([C@@H](C)CO)C[C@H]1C
  -12[16.7 µM], 8
CC(C)NC(=O)N(C)C[C@@H]1OCCCC[C@H](C)Oc2ccc(NS(=O)(=O)c3cccs3)cc2C(=O)N([C@H](C)CO)C[C@@H]1C
  -24[16.7 µM], -16
CCC(=O)N(C)C[C@H]1Oc2ncc(C3=CCCC3)cc2C(=O)N([C@@H](C)CO)C[C@H]1C
  -1[16.7 µM], 12
C[C@H](CO)N1C[C@H](C)[C@H](CN(C)C(=O)Cc2cccnc2)Oc2ncc(-c3cccnc3)cc2C1=O
  -7[16.7 µM], -10
C[C@@H]1CN([C@H](C)CO)S(=O)(=O)c2ccc(C3=CCCC3)cc2O[C@@H]1CN(C)Cc1ccccc1F
  13[16.7 µM], 12

# More entries follow:
# Every second line gives: HIV Env fusion, UUG fidelity
C[C@H]1CN([C@@H](C)CO)S(=O)(=O)c2ccc(-c3cncnc3)cc2O[C@H]1CN(C)C(=O)Cc1cccnc1
  18[16.7 µM], -8
CCC(=O)N(C)C[C@H]1Oc2ncc(-c3ccccc3C)cc2C(=O)N([C@H](C)CO)C[C@H]1C
  -1[16.7 µM], 7
C[C@H]1CN([C@@H](C)CO)C(=O)Cc2cc(NC(=O)Nc3ccc(F)cc3)ccc2O[C@H]1CN(C)C(=O)Nc1ccc2c(c1)OCO2
  7[16.7 µM], -9
C[C@@H]1CCCCO[C@@H](CN(C)CC2CCCCC2)[C@H](C)CN([C@@H](C)CO)C(=O)c2cc(NS(=O)(=O)c3ccc(Cl)cc3)ccc2O1
  -57[16.7 µM], 20
C[C@@H]1CN([C@H](C)CO)C(=O)c2cc(NC(=O)Nc3ccccc3)ccc2O[C@@H](C)CCCCO[C@H]1CN(C)S(=O)(=O)c1cccs1
  -7[16.7 µM], -8
CCCC(=O)Nc1ccc2c(c1)C(=O)N(C)[C@@H]1CC[C@@H](CC(=O)NC3CCCC3)O[C@@H]1CO2
  -2[16.7 µM], 5
CC(C)NC(=O)N(C)C[C@@H]1Oc2c(NC(=O)c3nc4ccccc4s3)cccc2C(=O)N([C@@H](C)CO)C[C@@H]1C
  11[16.7 µM], -8
C[C@@H]1CCCCO[C@@H](CN(C)Cc2ccc3c(c2)OCO3)[C@@H](C)CN([C@@H](C)CO)C(=O)c2cc(NS(=O)(=O)c3cccs3)ccc2O1
  -10&-17[16.7 µM], 35&26
O=C(C[C@@H]1CC[C@H]2[C@@H](COC[C@@H](O)CN2Cc2nccs2)O1)N1CCC(Cc2ccccc2)CC1
  4[16.7 µM], -8
C[C@H]1CN([C@@H](C)CO)S(=O)(=O)c2ccc(-c3cncnc3)cc2O[C@H]1CN(C)Cc1cncnc1
  -4[16.7 µM], -9

# Whole records, looked up by structure. Values in the order: HIV Env fusion | UUG fidelity
# O=C(C[C@@H]1CC[C@H]2[C@@H](COC[C@@H](O)CN2Cc2nccs2)O1)N1CCC(Cc2ccccc2)CC1 as listed: 4[16.7 µM] | -8
# COc1ccc(NC(=O)Nc2ccc3c(c2)C(=O)N([C@@H](C)CO)C[C@H](C)[C@@H](CN(C)C(=O)Nc2ccc(C(F)(F)F)cc2)OCCCC[C@H](C)O3)cc1 as listed: 44[16.7 µM] | -18
# C[C@@H]1CN([C@H](C)CO)C(=O)Cc2cc(NS(C)(=O)=O)ccc2O[C@@H]1CN(C)CC1CC1 as listed: -1[16.7 µM] | -20
# C[C@@H]1CCCCO[C@@H](CN(C)CC2CCCCC2)[C@H](C)CN([C@@H](C)CO)C(=O)c2cc(NS(=O)(=O)c3ccc(Cl)cc3)ccc2O1 as listed: -57[16.7 µM] | 20
# C[C@H]1CN([C@@H](C)CO)S(=O)(=O)c2ccc(-c3cncnc3)cc2O[C@H]1CN(C)C(=O)Cc1cccnc1 as listed: 18[16.7 µM] | -8

# Continued.
# Every second line gives: HIV Env fusion, UUG fidelity
C[C@H](CO)N1C[C@H](C)[C@H](CN(C)S(=O)(=O)c2ccccc2)Oc2ccc(NS(C)(=O)=O)cc2CC1=O
  17[16.7 µM], 7
C[C@@H]1CCCCO[C@H](CN(C)S(=O)(=O)c2cn(C)cn2)[C@@H](C)CN([C@@H](C)CO)C(=O)c2cc(N(C)C)ccc2O1
  0[16.7 µM], -11
C[C@H](CO)N1C[C@H](C)[C@@H](CN(C)Cc2ccccc2)Oc2ccc(NC(=O)CCCCCC(=O)Nc3ccccc3N)cc2CC1=O
  29[16.7 µM], 9
C[C@H]1CN([C@@H](C)CO)C(=O)c2cc(NC(=O)Nc3ccccc3)ccc2O[C@H]1CN(C)S(=O)(=O)c1cn(C)cn1
  21[16.7 µM], 15
Cc1noc(C)c1S(=O)(=O)Nc1ccc2c(c1)C(=O)N([C@H](C)CO)C[C@H](C)[C@@H](CN(C)C(=O)c1ccccc1)OCCCC[C@@H](C)O2
  -24[16.7 µM], 8
O=C(C[C@@H]1C[C@H]2c3cc(NC(=O)NC4CCCCC4)ccc3O[C@H]2[C@@H](CO)O1)NCC1CC1
  24[16.7 µM], 1
C[C@H](CO)N1C[C@H](C)[C@@H](CN(C)Cc2ccc(C(=O)O)cc2)Oc2ccc(NS(C)(=O)=O)cc2CC1=O
  -36[16.7 µM], 42
COc1ccccc1-c1cn(CC[C@@H]2CC[C@H](NC(=O)C3CCCCC3)[C@H](CO)O2)nn1
  22[16.7 µM], -15
CCC(=O)Nc1ccc2c(c1)C(=O)N(C)[C@H]1CC[C@@H](CC(=O)N[C@@H](C)c3ccccc3)O[C@H]1CO2
  2[16.7 µM], -27
Cc1ccccc1CN(C)C[C@H]1OCc2cn(nn2)CCCC(=O)N([C@H](C)CO)C[C@H]1C
  -5[16.7 µM], 7
CCNC(=O)C[C@H]1C=C[C@H](NC(=O)C2CC2)[C@@H](CO)O1
  -15[16.7 µM], -6
